rRNA inh HTS = reduced GFP signal of wild-type E. coli, primary screen, bacterial rRNA inhibitor project, GFP/RFP fluorescence, OD600, single point. GFP signal change (wild-type ribosome), % (concentration not given with the values). E. coli WT GFP vs humanized-ribosome RFP mutants, 24 h; hits give low values; DMSO median 0, no signal -100. 1.6% of 350,000 active;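 active = significant combined selectivity score with lowered wild-type GFP, culture density cut under 30%, mutant RFP and density less affected; inactive = any of these conditions unmet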; also: one replicate is shown; some compounds called inactive have numbers as strong as hits
rRNA inh HTS OD600 = second read-out of rRNA inh HTS, no call of its own (marks repeat the call); OD600 change, %; measured here: OD600 growth;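 optical density of the mix in the first replicate; 0 = DMSO median and -100 = no signal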
rRNA inh HTS RFP = further read-out of rRNA inh HTS, marked with its call; RFP signal change, %; measured here: RFP humanized mutant strains;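 first replicate; 0 = DMSO median and -100 = no signal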
Active calls of the source: *; & = joins results of further samples.

SMILES | rRNA inh HTS | rRNA inh HTS OD600 | rRNA inh HTS RFP
C[C@@H]1CN([C@@H](C)CO)C(=O)c2cc(/C=C/c3ccccc3)cnc2O[C@H]1CN(C)C(=O)c1cnccn1 | -1 | 8 | 2.3
COC(=O)N(C)C[C@H]1OCc2cn(nn2)CCCC(=O)N([C@H](C)CO)C[C@H]1C | 2 | 4 | -0.1
COc1ccc(NC(=O)Nc2ccc3c(c2)CC(=O)N([C@@H](C)CO)C[C@H](C)[C@@H](CN(C)CC2CC2)O3)cc1 | 3 | 1 | 0.1
CCS(=O)(=O)N1CCCCN2[C@H](CO)[C@H](c3ccc(-c4ccccc4)cc3)[C@@H]2C1 | -5 | -1 | -3.6
C[C@@H]1CN([C@@H](C)CO)C(=O)CCCn2cc(nn2)CO[C@H]1CN(C)Cc1ccc(C(=O)O)cc1 | 3 | 1 | 2.4
OC[C@@H]1[C@H](c2ccc(-c3ccc(F)cc3)cc2)[C@@H]2CN(Cc3ccncc3)CCCCN12 | -2 | 5 | -0.9
C/C=C/c1ccc2c(c1)O[C@H](CN(C)S(C)(=O)=O)[C@H](C)CN([C@H](C)CO)S2(=O)=O | 3 | -1 | -1.7
Cc1noc(C)c1S(=O)(=O)Nc1ccc2c(c1)C(=O)N([C@H](C)CO)C[C@H](C)[C@H](CN(C)C(=O)Nc1ccc(C(F)(F)F)cc1)OCCCC[C@H](C)O2 | 1 | 1 | -2.0
C[C@@H]1CCCCO[C@H](CN(C)Cc2ccc3c(c2)OCO3)[C@H](C)CN([C@H](C)CO)C(=O)c2cc(NS(=O)(=O)c3cccs3)ccc2O1 | -1 | 1 | 0.3
COc1ccc(S(=O)(=O)N(C)C[C@H]2Oc3ccc(NC(=O)CCCN(C)C)cc3CC(=O)N([C@H](C)CO)C[C@@H]2C)cc1 | 7 | 2 | 0.4
O=C([C@H]1[C@H](CO)[C@H]2Cn3c(ccc(C4=CCCC4)c3=O)[C@H]2N1Cc1nccs1)N1CCOCC1 | 1 | -1 | -0.3
C[C@H]1CN([C@@H](C)CO)C(=O)c2cccc(N(C)C)c2O[C@@H]1CN(C)S(C)(=O)=O | 1 | 1 | 1.8
O=C(C1CCCC1)N1CC(=O)N2[C@H](CO)[C@H](c3ccc(Br)cc3)[C@@H]2C1 | -1 | -1 | 0.2
C[C@H](CO)N1C[C@H](C)[C@H](CN(C)C(=O)CCC(F)(F)F)OCCCC[C@H](C)Oc2ccc(NC(=O)c3ccncc3)cc2C1=O | 1 | -1 | -1.8
CCCNC(=O)N[C@@H]1CC[C@@H](CCn2cc(C3CCCC3)nn2)O[C@H]1CO | 3 | 7 | -0.4
COc1cccc(-c2ccc3n(c2=O)C[C@@H]2[C@@H](CO)[C@H](C(=O)NCC4CC4)[C@H]3N2S(C)(=O)=O)c1 | 1 | 12 | -0.9
N#C[C@@H]1[C@H](c2ccccc2-c2ccc(F)cc2)[C@H](CO)N1c1ncc(-c2ccccc2)s1 | 1 | 3 | -3.1
COc1ccc(-c2oc3c(c2-c2cnc(OC)nc2)C(O)CC3)cc1 (stereo unspecified) | 16 | 5 | 9.0
COc1ccccc1S(=O)(=O)N[C@@H]1CC[C@H](CCNC(=O)C2CCC2)O[C@H]1CO | 1 | -4 | -1.8
COc1cccc(-c2ccc(C3[C@H]4CNC[C@@H]3N4Cc3cccnc3)cc2)c1 (stereo partly specified) | 7 | 8 | 3.7
C[C@@H]1CN([C@H](C)CO)S(=O)(=O)c2ccc(-c3ccccc3F)cc2O[C@@H]1CN(C)Cc1cccnc1 | -34 | -53 | 13
C[C@@H]1CN([C@@H](C)CO)C(=O)c2cc(NS(=O)(=O)c3cccs3)ccc2O[C@H]1CN(C)S(=O)(=O)c1cccs1 | -7 | -1 | 1.4
COC(=O)C[C@H]1CC[C@@H]2[C@@H](COc3ccc(NC(=O)c4cc(F)cc(F)c4)cc3C(=O)N2C)O1 | -1 | 4 | -0.7
C[C@@H]1CN([C@@H](C)CO)C(=O)c2cc(NC(=O)Nc3ccc(F)cc3)ccc2O[C@@H](C)CCCCO[C@H]1CN(C)C(=O)c1ccccc1 | 0 | -7 | 1.8
CO[C@@H]1CN(C)C(=O)c2ccc(NC(=O)Nc3ccccc3)cc2OC[C@H](C)N(C(=O)Nc2c(C)noc2C)C[C@H]1C | 1 | 1 | -2.5
CCCC(=O)Nc1ccc2c(c1)OC[C@@H](C)N(C)C[C@H](C)[C@@H](OC)CN(C)C2=O | -1 | 5 | -1.4
O=S(=O)(c1ccccc1)N1CCCCN2[C@@H](CO)[C@@H](c3ccc(-c4cncnc4)cc3)[C@@H]2C1 | -1 | -3 | -1.4
CNC[C@H]1OCCCC[C@@H](C)Oc2ccc(NC(=O)c3ccncc3)cc2C(=O)N([C@H](C)CO)C[C@@H]1C | 3 | 1 | -3.3
Cc1noc(C)c1S(=O)(=O)N(C)C[C@H]1OCCCC[C@@H](C)Oc2ccc(NC(=O)Nc3ccccc3)cc2C(=O)N([C@@H](C)CO)C[C@@H]1C | 1 | 0 | -1.9
C[C@@H]1CN([C@@H](C)CO)C(=O)CCCn2nncc2CO[C@@H]1CN(C)S(=O)(=O)c1cccc(C#N)c1 | 7&-2 | 8&4 | -5.0&-0.2

13 structures out of the list, arranged by molar mass, smallest number first.
SMILES | rRNA inh HTS | rRNA inh HTS OD600 | rRNA inh HTS RFP
CCCNC(=O)N[C@@H]1CC[C@@H](CCn2cc(C3CCCC3)nn2)O[C@H]1CO | 3 | 7 | -0.4
CCCC(=O)Nc1ccc2c(c1)OC[C@@H](C)N(C)C[C@H](C)[C@@H](OC)CN(C)C2=O | -1 | 5 | -1.4
N#C[C@@H]1[C@H](c2ccccc2-c2ccc(F)cc2)[C@H](CO)N1c1ncc(-c2ccccc2)s1 | 1 | 3 | -3.1
O=S(=O)(c1ccccc1)N1CCCCN2[C@@H](CO)[C@@H](c3ccc(-c4cncnc4)cc3)[C@@H]2C1 | -1 | -3 | -1.4
COC(=O)C[C@H]1CC[C@@H]2[C@@H](COc3ccc(NC(=O)c4cc(F)cc(F)c4)cc3C(=O)N2C)O1 | -1 | 4 | -0.7
COc1cccc(-c2ccc3n(c2=O)C[C@@H]2[C@@H](CO)[C@H](C(=O)NCC4CC4)[C@H]3N2S(C)(=O)=O)c1 | 1 | 12 | -0.9
C[C@@H]1CN([C@@H](C)CO)C(=O)CCCn2nncc2CO[C@@H]1CN(C)S(=O)(=O)c1cccc(C#N)c1 | 7&-2 | 8&4 | -5.0&-0.2
CNC[C@H]1OCCCC[C@@H](C)Oc2ccc(NC(=O)c3ccncc3)cc2C(=O)N([C@H](C)CO)C[C@@H]1C | 3 | 1 | -3.3
C[C@@H]1CN([C@H](C)CO)S(=O)(=O)c2ccc(-c3ccccc3F)cc2O[C@@H]1CN(C)Cc1cccnc1 | -34 | -53 | 13
CO[C@@H]1CN(C)C(=O)c2ccc(NC(=O)Nc3ccccc3)cc2OC[C@H](C)N(C(=O)Nc2c(C)noc2C)C[C@H]1C | 1 | 1 | -2.5
C[C@@H]1CN([C@@H](C)CO)C(=O)c2cc(NS(=O)(=O)c3cccs3)ccc2O[C@H]1CN(C)S(=O)(=O)c1cccs1 | -7 | -1 | 1.4
C[C@@H]1CN([C@@H](C)CO)C(=O)c2cc(NC(=O)Nc3ccc(F)cc3)ccc2O[C@@H](C)CCCCO[C@H]1CN(C)C(=O)c1ccccc1 | 0 | -7 | 1.8
Cc1noc(C)c1S(=O)(=O)N(C)C[C@H]1OCCCC[C@@H](C)Oc2ccc(NC(=O)Nc3ccccc3)cc2C(=O)N([C@@H](C)CO)C[C@@H]1C | 1 | 0 | -1.9

Next structures.
SMILES | rRNA inh HTS | rRNA inh HTS OD600 | rRNA inh HTS RFP
C[C@@H]1CN([C@@H](C)CO)C(=O)Cc2cc(N(C)C)ccc2O[C@H]1CN(C)C(=O)Nc1ccc(C(F)(F)F)cc1 | -1 | -2 | -2.3
CC(C)NC(=O)Nc1ccc2c(c1)C(=O)N(C)C[C@H](C)[C@@H](CN(C)C(=O)NC(C)C)O2 | 3 | 6 | -1.0
CCCNC(=O)Nc1ccc2c(c1)C(=O)N(C)[C@@H]1CC[C@H](CC(=O)O)O[C@@H]1CO2 | 1 | -4 | 0.3
C[C@@H]1CN([C@H](C)CO)C(=O)c2cc(NS(C)(=O)=O)ccc2O[C@H]1CN(C)C(=O)Nc1ccc2c(c1)OCO2 | 6 | 14 | -2.5
C[C@H]1CN([C@@H](C)CO)C(=O)c2cccc(NC(=O)Nc3cccc4ccccc34)c2O[C@@H]1CN(C)S(C)(=O)=O | 1 | -2 | -3.0
Cc1noc(C)c1S(=O)(=O)Nc1cccc2c1O[C@H](CN(C)Cc1ccc(C(F)(F)F)cc1)[C@H](C)CN([C@@H](C)CO)C2=O | 2 | -1 | -0.7
C/C=C/c1ccc2c(c1)O[C@H](CN(C)Cc1ccccc1)[C@H](C)CN([C@@H](C)CO)S2(=O)=O | -12 | -49 | 24
O=C(NCC1CC1)[C@@H]1[C@@H](CO)[C@@H]2Cn3c(ccc(C4=CCCCC4)c3=O)[C@H]1N2 | 3 | 7 | -1.8
O=C(NC1CCCCC1)C(CCc1ccccc1)N1CCOCC1 (stereo unspecified) | 7 | 13 | -3.8
CNC[C@H]1OCCCC[C@H](C)Oc2ccc(NC(=O)Nc3cccc4ccccc34)cc2C(=O)N([C@H](C)CO)C[C@@H]1C | 6 | -1 | -1.7
CS(=O)(=O)N1C[C@@H]2C(c3ccc(Br)cc3)[C@H](C1)N2Cc1ccc(F)cc1 (stereo partly specified) | -13&-6 | -28&-27 | -2.1&1.7
Cc1ccc(-c2nc3ccc(C)cn3c2Cc2cccc(Cl)c2)cc1 | -14 | -55 | 22
O=C(NCc1cccnc1)c1cc(C2CCCCN2C(=O)c2ccc3ccccc3c2)on1 (stereo unspecified) | -10 | -10 | 1.5
COc1ccc(CN2C[C@@H](O)COC[C@@H]3O[C@H](CC(=O)N(C)C)CC[C@H]32)cc1 | 4 | 1 | -0.7
Nc1[nH]c(C(=O)c2ccccc2)c(-c2ccc(C(F)(F)F)cc2)c1C(=O)NCc1ccc(Cl)cc1Cl | 18 | 16 | 5.2
CCC(=O)Nc1ccc2c(c1)OC[C@H](C)N(Cc1ccccc1OC)C[C@H](C)[C@@H](OC)CN(C)C2=O | 3 | 6 | 0.2
Nc1ncnc2c1ncn2[C@@H]1O[C@H](C(=O)NCC(F)(F)F)[C@@H](O)[C@H]1O | 10 | -1 | -0.7
COc1ccc(-c2cnc3c(c2)C(=O)N([C@H](C)CO)C[C@@H](C)[C@@H](CN(C)C(=O)Cc2cccnc2)O3)cc1 | 1 | 10 | -0.5
CO[C@@H]1CN(C)C(=O)c2ccc(NC(=O)C3CCC3)cc2OC[C@@H](C)N(C(=O)c2ccccc2)C[C@H]1C | -3 | -2 | -1.1
CC1(C(=O)NCCCN2CCCC2=O)CCN1CCc1ccccc1 (stereo unspecified) | 4 | 11 | -2.2
CCS(=O)(=O)N1CCC2(CC1)CN(C(=O)Cc1ccccn1)[C@H](CO)c1[nH]c3cc(OC)ccc3c12 | 2 | 3 | 1.2
C[C@@H]1CN([C@@H](C)CO)C(=O)c2cccc(NC(=O)CCCCCC(=O)Nc3ccccc3N)c2O[C@H]1CN(C)C(=O)Nc1ccc2c(c1)OCO2 | 0 | 7 | 0.3
COCC(=O)N1CC2(C1)[C@@H](c1ccccc1)[C@H](CO)N2C(=O)c1cccnc1 | 3 | 0 | -0.6
C/C=C/c1ccc2c(c1)O[C@@H](CN(C)C(C)=O)[C@@H](C)CN([C@H](C)CO)S2(=O)=O | 1 | 7 | -1.6
C[C@@H]1CN([C@H](C)CO)C(=O)c2cccc(NC(=O)CCCCCC(=O)Nc3ccccc3N)c2O[C@@H]1CN(C)C | 4 | 9 | -0.7
COc1ccccc1NC(=O)N1C[C@@H](O)COC[C@@H]2O[C@H](CC(=O)NCc3ccccc3)CC[C@H]21 | 0 | -5 | -0.4
Cc1noc(C)c1NC(=O)N(C)C[C@H]1Oc2ccc(NC(=O)Nc3ccc4c(c3)OCO4)cc2C(=O)N([C@@H](C)CO)C[C@H]1C | 4 | 3 | -0.4
CCC(=O)N[C@H]1CC[C@@H](CC(=O)NCC2CCCCC2)O[C@H]1CO | 3 | -2 | 2.5
Cc1ccc(S(=O)(=O)Nc2ccc3c(c2)C(=O)N([C@@H](C)CO)C[C@@H](C)[C@@H](CN(C)S(C)(=O)=O)O3)cc1 | -1 | 1 | 0.3
C[C@H]1CN([C@@H](C)CO)C(=O)c2cccc(NS(C)(=O)=O)c2O[C@@H]1CN(C)Cc1ccc(-c2ccccc2)cc1 | -5 | 0 | 1.7
O=C(C[C@H]1CC[C@@H](NC(=O)C2CCOCC2)[C@@H](CO)O1)Nc1nccs1 | 1 | -4 | 0.8
C[C@@H]1CCCCO[C@@H](CN(C)C(=O)Nc2ccc(F)cc2)[C@@H](C)CN([C@H](C)CO)C(=O)c2cc(NC(=O)Cc3ccccc3)ccc2O1 | 3 | -11 | -1.5
C[C@@H]1CN([C@H](C)CO)C(=O)c2cc(C#CC(C)(C)O)cnc2O[C@H]1CN(C)Cc1cccc(F)c1 | -2 | 6 | -2.7
CC(=O)N(C)C[C@H]1Oc2cc(-c3ccccc3)ccc2S(=O)(=O)N([C@H](C)CO)C[C@@H]1C | -5 | -22 | -0.9
COCC(=O)Nc1ccc2c(c1)C(=O)N(C)C[C@@H](OC)[C@H](C)CN(C(C)=O)[C@@H](C)CO2 | 1 | 4 | -1.7
CC(=O)c1ccc(OCc2nnn(CC(=O)NS(=O)(=O)c3ccc(C)cc3)c2-c2ccccc2)cc1 | 2 | 14 | -0.5
C[C@@H]1CN([C@H](C)CO)S(=O)(=O)c2ccc(-c3ccc(C#N)cc3)cc2O[C@@H]1CN(C)C(=O)CN(C)C | -1 | -2 | -2.3
CO[C@@H]1CN(C)C(=O)c2cc(NC(=O)NC(C)C)ccc2OC[C@@H](C)N(C)C[C@@H]1C | 0 | 1 | -0.3

Source: PubChem (Broad Institute)

Only part of the results is shown; count on the stated rates, not on these rows.
